miR-21 FLuc – qHTS Assay for Modulators of miRNAs and/orActivators of miR-21; HeLa miR-21 FLuc reporter, luciferase, 48 h; Potency, µM (top dose mostly 38.3 µM), for the others: top-dose reporter change, positive = more light; 340,000 tested, under 10 active; active = well fitted rising curve with a large enough effect; inconclusive = small, poorly fitted or top-dose-only effect; inactive = no such curve, though single readings can be large or run the other way;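 note: % of control where 0% means no effect; miR-21 action dims this reporter so a rising signal means less miR-21 action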
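Compounds were titrated across several concentrations (up to approximately 40 uM) and incubated 48 hours with HeLa miR-21-FLuc reporter cells (miR-21 target sequence downstream of FLuc, endogenous miR-21). Readout was firefly luciferase luminescence after lytic detection reagent.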
Rango release inh – qHTS Assay for Inhibitors of RanGTP induced Rango (Ran-regulated importin-beta cargo) - Importin beta complex dissociation; Snurportin-1 (Homo sapiens) + GTP-binding nuclear protein Ran (Homo sapiens) + Importin …; Biochemical FRET Rango-importin beta, RanGTP-induced dissociation; Potency, µM (doses to about 46.1 µM), inactives show top-dose activity change, negative = inhibition; hit rate 0.071% among 340,000; AID 540253, 2011; active means falling FRET ratio curve, often poorly fitted, with flat reads before Ran was added; inconclusive means other falling curves, or compound fluorescence or quenching; inactive means flat or rising ratio curve;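 note: potency is the fitted concentration of half-maximal effect; % of control where 0% means no effect; nearly all actives have a fitted effect of over 45% in size; -100% = wells without RanGTP and RCC1; the record marks most hits as doubtful in a second field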
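Compounds sat 5 min at room temperature with 0.1 uM Rango biosensor plus 0.25 uM importin beta, then FRET pre-read. RanGTP-RCC1 (0.6 uM Ran, 2mM GTP, 0.2 uM RCC1) added for 45 min, and the CFP/YFP post-read measured blocked complex dissociation.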
Rango complex inh – qHTS Assay for Inhibitors of Rango (Ran-regulated importin-beta cargo) - Importin beta complex formation. Rango CFP/YFP FRET sensor + importin beta, 45 min. Importin subunit beta-1 (Homo sapiens), Q14974. Potency, µM (top dose mostly 92.2 µM), for the others: at the highest dose inhibition of complex formation. hit rate 0.031% among 340,000; active = rising FRET ratio curve, often small or poorly fitted; inconclusive = mostly compound fluorescence or quenching in the first reads; inactive = flat curves in all reads;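 note: potency is the fitted concentration of half-maximal effect; 0% = DMSO wells and 100% = buffer wells lacking importin beta; nearly all actives have a fitted effect of over 15% in size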
Target sequence (Q14974 whole entry, looked up): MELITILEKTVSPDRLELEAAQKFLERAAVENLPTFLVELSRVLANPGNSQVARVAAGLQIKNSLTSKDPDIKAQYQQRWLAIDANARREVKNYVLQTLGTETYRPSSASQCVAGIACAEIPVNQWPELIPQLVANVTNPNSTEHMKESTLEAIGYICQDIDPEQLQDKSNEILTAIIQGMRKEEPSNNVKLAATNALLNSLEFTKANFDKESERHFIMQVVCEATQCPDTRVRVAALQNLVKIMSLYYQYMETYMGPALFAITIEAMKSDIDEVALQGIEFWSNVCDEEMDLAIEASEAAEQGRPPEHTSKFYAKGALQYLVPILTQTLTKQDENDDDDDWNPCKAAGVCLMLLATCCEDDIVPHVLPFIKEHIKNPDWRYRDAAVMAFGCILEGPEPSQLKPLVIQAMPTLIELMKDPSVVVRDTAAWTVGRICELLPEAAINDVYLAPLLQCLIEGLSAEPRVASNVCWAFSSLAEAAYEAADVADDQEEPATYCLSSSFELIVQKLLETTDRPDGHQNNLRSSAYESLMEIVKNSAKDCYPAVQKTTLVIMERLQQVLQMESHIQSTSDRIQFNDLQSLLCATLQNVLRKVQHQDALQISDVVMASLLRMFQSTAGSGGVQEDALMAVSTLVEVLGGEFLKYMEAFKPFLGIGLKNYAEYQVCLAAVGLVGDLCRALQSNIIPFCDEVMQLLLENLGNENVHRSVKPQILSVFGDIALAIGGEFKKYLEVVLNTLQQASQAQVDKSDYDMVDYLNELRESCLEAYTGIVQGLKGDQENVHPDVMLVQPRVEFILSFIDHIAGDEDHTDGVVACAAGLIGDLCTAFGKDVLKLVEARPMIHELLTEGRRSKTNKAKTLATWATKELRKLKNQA
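Inhibition scored from the CFP 486 nm/YFP 530 nm FRET ratio 45 min after adding 0.125 microM importin beta to 50 nM Rango biosensor preincubated 5 min with compound (room temperature, PBS with DTT, Tween-20, BSA). No-importin wells as positive control.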
GLA inh pH 4.5 – qHTS Assay for Inhibitors of Human alpha-Galactosidase at pH 4.5; Alpha-galactosidase A (Homo sapiens), P06280; purified enzyme, 4-MU-alpha-Gal fluorescence, pH 4.5; activity change, negative = inhibition, % at 105 µM; 230,000 tested, under 10 active; AID 1467, 2008; inconclusive = small, poorly fitted or top-dose-only inhibition, or a rising curve; inactive = flat fitted curve, though single readings scatter; no compound was filed as active;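 note: 0% = full activity with enzyme and -100% = basal without enzyme; dose as in the result columns while the protocol names 77 µM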
An asterisk follows results filed as active; ? = inconclusive; nt = not tested or not shown; & = joins results of further samples. A portion of the library (hit frequency here may not be typical).

SMILES | miR-21 FLuc | Rango release inh | Rango complex inh | GLA inh pH 4.5
CCOC(=O)Cc1csc(NC(=O)c2c(O)c3ccccc3n(CC(C)C)c2=O)n1 | -4% | 12% | 1.8% | -4
CCS(=O)(=O)N1CCN(CC(=O)NC2CCCCC2)CC1 | 0% | -1% | -0.4% | 0
Cc1nc2ccc(S(=O)(=O)NC(C(=O)N3CCC(C)CC3)C(C)C)cc2s1 (stereo not given) | 0% | 12% | 6.5% | -10
O=C(c1ccccc1)C1CCN(C(=O)c2cccs2)CC1 | 1% | -14% | ? | -16
O=C1ON(Cc2ccccc2)C(c2ccccc2)N1c1ccccc1 (stereo not given) | nt | 2% | -1.6% | nt
COc1cccc(CNC(=O)C2CCN(S(=O)(=O)c3ccc4c(c3)CC(C)N4C(=O)C3CC3)CC2)c1 (stereo not given) | 8% | 8% | 2.9% | nt
O=C(c1ccc(S(=O)(=O)Nc2ccccc2F)cc1)N1CCCCCC1 | nt | 2% | ? | nt
CCOC(=O)Cn1c(=O)oc2cc(S(=O)(=O)NCC3CCCO3)ccc21 (stereo not given) | 0% | 1% | 1.8% | 5
N#Cc1ccc(CSc2nnc(-c3ccccc3)n2Cc2ccco2)cc1 | -3% | 9% | 1.6% | -4
O=C(COc1ccccc1)Nc1nnc(S(=O)(=O)N2CCCCC2)s1 | -5% | -17% | 0.1% | nt
COc1ccc(NC(=O)CN(C)S(=O)(=O)c2ccc(Br)s2)cc1OC | -2% | 11% | 0.1% | nt
Cc1cc(NS(=O)(=O)c2ccc(NC(=S)NC(=O)c3ccc(Cl)cc3Cl)cc2)no1 | -13% | 3% | 1.4% | -1
COc1ccc(NC(=O)C2=C(C)NC(=O)NC2c2ccccc2[N+](=O)[O-])cc1 (stereo not given) | -3% | -3% | 0.7% | -2
CCOc1cc(CN2CCCCC2)ccc1OC | -2% | -1% | -0.2% | -1
Cc1cc(C)c(S(=O)(=O)Nc2c(C)[nH]c(=O)[nH]c2=O)c(C)c1 | 0% | -2% | -4.1% | -7
O=C(Nc1cccc([N+](=O)[O-])c1)N1CCN(c2ccccc2)CC1 | 5% | 28% | -0.3% | 4
Cc1cc2oc(=O)cc(CN3CCCCC3)c2cc1C(C)C | -7% | 15% | 4.4% | -4
CC(=O)c1sc(NC(=O)COc2ccc(C(C)C)c(C)c2)nc1C | -1% | -23% | 10% | 0
C/C(=N\NC(=O)c1cccs1)c1c(O)cc(C)oc1=O | -46% | ? | ? | nt
O=C(CSC(=O)c1ccccc1)Nc1ccccc1F | nt | 0% | -0.9% | nt
CCOC(=O)CNC(=O)CSc1nnc(-c2ccc(OC)cc2)n1CC | -9% | 3% | 1.6% | -3
COC(=O)c1c(NC(=O)c2nc3nc(C)cc(C(F)F)n3n2)sc2c1CCC2 | -4% | 16% | 18% | 1
Cc1ccsc1/C=N\NC(=O)Cn1nnc2ccccc21 | 18% | 10% | 1.4% | 4
COC(=O)CCCCCCCCC(O)CN(C)C (stereo not given) | 0% | -9% | -1.4% | -4
Cc1ccc(-n2c3c(cc(C(=O)N4CCN(C)CC4)c2=O)C(=O)CC(C)(C)C3)cc1 | -3% | 2% | 0.4% | -2
CN(C(=O)COC(=O)C1CSC2(C)CCC(=O)N12)c1ccccc1 (stereo not given) | nt | 9% | -0.5% | nt
Cc1csc2c(N3CCN(C(=O)c4ccc(C(C)(C)C)cc4)CC3)ncnc12 | -3% | -16% | -1.2% | -8
CN(C)c1ccc(C(CNC(=O)c2ccco2)N2CCCC2)cc1 (stereo not given) | -25% | 0% | 2.8% | nt
Cc1cc(N)n(-c2ccccc2C)n1 | -3% | 10% | ? | -3
COC(=O)c1cc2c(-c3ccccc3)cc3ccccn3c-2c1C(=O)OC | -1% | 1% | 2.6% | -7
COc1cccc(-c2nc3ccc(C(=O)N4CCCC(O)C4)cc3o2)c1 (stereo not given) | -45% | ? | ? | nt
COc1ccc(N2CCN(C(=O)c3ccc(CS(=O)Cc4ccc(Cl)cc4)o3)CC2)cc1 (stereo not given) | 7% | -3% | -0.5% | nt
COc1ccc(CNC(=O)c2cccc3c2C(=O)N(Cc2cccnc2)C3)cc1 | -8% | -1% | -2.4% | -1
COc1cc(C(=O)CSc2nncn2C)cc(OC)c1OC | 0% | 4% | -0.7% | 2
CCCCNC(=O)c1cc2c(=O)n(CC)c3ccccc3c2s1 | -6% | 0% | -1.7% | nt
COc1ccc(-n2c3c(cc(C(=O)Nc4ccc(C)cc4)c2=O)C(=O)CCC3)cc1 | nt | 9% | -3.3% | nt
CC(/C=C/c1ccc2c(c1)OCO2)=N/NC(=O)COc1ccc(C)cc1 | 0% | -15% | 1.1% | 3
CC(=O)c1ccc(NC(=O)CN2C(=O)/C(=C/C=C/c3ccccc3)SC2=S)cc1 | -6% | 20% | 29µM* | -6
CC(C)c1ccc(C2/C(=C(/O)c3ccc(F)cc3)C(=O)C(=O)N2CCCN2CCOCC2)cc1 (stereo not given) | -7% | -9% | -3.8% | nt
C=CCNc1ncnc2ccccc12 | -2% | -3% | -1.6% | -3
COc1ccc(C(CNC(=O)c2cccc(NS(=O)(=O)c3ccccc3)c2)N2CCCC2)cc1 (stereo not given) | nt | 1% | -0.7% | nt
COc1ccccc1NC(=S)N(Cc1cccs1)C1CCCC1 | 5% | 4% | ? | -3
COc1cccc(CC(=O)OC(C)C(=O)Nc2ncc(Cl)cc2Cl)c1 (stereo not given) | nt | -7% | -0.3% | nt
CCOC(=O)c1c(C)[nH]c(C)c1C(=O)COC(=O)/C=C/c1ccc(Cl)cc1 | 0% | -20% | -3.9% | -12
CC(C)(C)c1ccc(C(=O)N2CCN(c3ccc(N4CCOCC4)nn3)CC2)cc1 | nt | -1% | -2.1% | nt
O=C1NC(=S)NC1Cc1ccc(O)cc1 (stereo not given) | nt | 1% | -0.8% | nt
Cc1ccc(-c2cc3nc(-c4ccccc4)cc(N4CCOCC4)n3n2)cc1 | -29% | ? | ? | 0
CCC(=O)OC1CC(C)N(C(=O)c2ccccc2)c2ccc(C)cc21 (stereo not given) | 8% | 8% | 0.8% | -8

Marked active in Rango complex inh, of those listed so far:
SMILES | miR-21 FLuc | Rango release inh | Rango complex inh | GLA inh pH 4.5
CC(=O)c1ccc(NC(=O)CN2C(=O)/C(=C/C=C/c3ccccc3)SC2=S)cc1 | -6% | 20% | 29µM* | -6

Continued.
SMILES | miR-21 FLuc | Rango release inh | Rango complex inh | GLA inh pH 4.5
COC(=O)c1ccc2c(c1)C(=O)N(C1CCCCC1)C2=O | -9% | -7% | 0.5% | 10
CCSc1nc2sc3c(c2c(=O)n1-c1ccc(OC)cc1)CCN(C)C3 | 4% | -24% | ? | -2
COc1ccccc1-c1nnc(SCC(=O)c2c(N)n(C3CC3)c(=O)[nH]c2=O)n1C | nt | 4% | -0.1% | nt
COC(=O)Cn1cc(C(=O)C2CC2)c2ccccc21 | -7% | 11% | 0.0% | -6
CCOc1ccc(NC(=O)C2CCC(CNc3c(N4CCOCC4)c(=O)c3=O)CC2)cc1 (stereo not given) | -3% | 8% | -0.7% | 4
O=C(NC1CC1)C1CCN(S(=O)(=O)c2ccc(Cl)c([N+](=O)[O-])c2)CC1 | nt | 0% | -0.1% | nt
COC(=O)CSc1nnc2cc(C)c3ccccc3n12 | -1% | -5% | -3.4% | 5
CCc1ccccc1Nc1nc(-c2cccnc2)cs1 | -18% | -13% | -3.4% | nt
CCOCCCNC(=O)C(Cc1ccccc1)NC(=O)c1ccco1 (stereo not given) | -3% | -1% | -2.9% | 7
CSc1ccccc1NC(=O)CN(C)C(=O)/C=C/c1ccccc1 | nt | 5% | 0.8% | nt
CC1=C(C(=O)N2CCCCC2)C(c2cccs2)NC(=O)N1 (stereo not given) | -2% | 9% | 0.2% | -2
COCc1ccc(CN2CCCC(CO)(Cc3ccccc3)C2)o1 (stereo not given) | -1% | 1% | -3.4% | -5

Compound profiles, from the list above:
CCc1ccccc1Nc1nc(-c2cccnc2)cs1 reads miR-21 FLuc: -18%; Rango release inh: -13%; Rango complex inh: -3.4%; GLA inh pH 4.5: nt
COCc1ccc(CN2CCCC(CO)(Cc3ccccc3)C2)o1 (stereo not given) reads miR-21 FLuc: -1%; Rango release inh: 1%; Rango complex inh: -3.4%; GLA inh pH 4.5: -5

The list goes on.
SMILES | miR-21 FLuc | Rango release inh | Rango complex inh | GLA inh pH 4.5
Cc1cc2ccccn2c1C(=O)c1ccc([N+](=O)[O-])cc1[N+](=O)[O-] | 2% | 2% | 1.8% | nt
COc1ccc(N2CCN(C(=O)c3ccc(N4C(=O)NC5CC4(C)Oc4ccccc45)cc3)CC2)cc1 (stereo not given) | 11% | -5% | -3.1% | -1
O=C(NCCN1CCN(c2ccccc2)CC1)c1ccccc1F | -10% | 8% | 2.3% | nt
CC(=O)Nc1ccc(NC(=O)C2C3C=CC(C3)C2C(=O)O)cc1 (stereo not given) | 4% | 25% | 6.0% | nt
Cc1ccc2c(c1)nnn2C1CCN(CC(=O)c2ccc(Cl)cc2)CC1 | -8% | -2% | -3.4% | -1
CC(C)CC(=O)NC1(C(F)(F)F)C(=O)N(CC(C)C)C2=C1C(=O)CC(C)(C)C2 (stereo not given) | 1% | -5% | -0.9% | 1
CN1CCN(C2CCCCC2NS(=O)(=O)c2ccc(Cl)cc2)CC1 (stereo not given) | -1% | -12% | 5.4% | nt
COc1ccccc1NC(=O)Cn1cnc2c(oc3ccccc32)c1=O | -14% | 1% | 0.0% | -1
O=C(Nc1nccs1)C1CCCN1S(=O)(=O)c1cccc2cccnc12 (stereo not given) | -7% | 7% | -0.7% | 0
Cc1ccc(-c2n[nH]c3c2C(c2cccc(O)c2)N(c2ccc(C(=O)O)cc2)C3=O)cc1 (stereo not given) | -1%&0% | 3% | 1.6% | -22
COc1ccc(OCc2cc(C(=O)N3CCN(CC(=O)N(C)C)CC3)no2)c(Cl)c1 | -10% | 18% | -0.7% | nt
COc1ccc(Cc2nc3ccc(C(=O)N(C)CCCN4CCOCC4)cc3o2)cc1 | -4% | 10% | 4.4% | nt
COc1ccc2[nH]c(C)c(CCN(Cc3cccs3)C(=S)Nc3ccc(F)cc3)c2c1 | 12% | -4% | ? | -2
c1ccc(Oc2nc(Oc3ccccc3)nc(N3CCOCC3)n2)cc1 | -6% | 1% | ? | -15
CCN(CC)CC(=O)NN(Cc1ccccc1)c1ccccc1 | -1% | 17% | -1.3% | -3
Cc1ccc(NC(=O)CSCC(=O)NC2CCCCC2)cc1 | 1% | -8% | 7.7% | -3
O=C(O)Cn1cnc2ccccc2c1=O | -1% | 0% | 4.0% | -7
Cc1cc(SCc2ccccc2Cl)nc(=O)[nH]1 | -5% | -9% | 7.3% | nt
CCn1nc(C)c(NC(=O)/C=C/c2ccc(OC)c(COc3ccc(Cl)cc3Br)c2)c1C | -17% | 3% | 0.0% | -2
Cc1ccc(C(=O)Nc2nc(C)c(C(=O)N(C)C)s2)o1 | -36% | -9% | ? | nt
C=CCNC(=O)c1onc(CSc2ccccc2C)c1C(=O)O | -12% | 2% | -1.5% | 0
O=C(COC(=O)c1ccccc1O)Nc1cc(S(=O)(=O)N2CCCCCC2)ccc1Cl | nt | -1% | -4.9% | nt
CCCCNC(=S)NNC(=O)c1nn(C)c(C)c1Cl | -31% | 1% | 2.9% | 3
O=S1(=O)C[C@@H]2N=C(N/N=C/c3ccccc3)S[C@@H]2C1 | -8% | -5% | -0.8% | 10

An excerpt of these results, in markdown:
| structure | miR-21 FLuc | Rango release inh | Rango complex inh | GLA inh pH 4.5 |
| --- | --- | --- | --- | --- |
| COC(=O)Cn1cc(C(=O)C2CC2)c2ccccc21 | -7% | 11% | 0.0% | -6 |
| C/C(=N\NC(=O)c1cccs1)c1c(O)cc(C)oc1=O | -46% | ? | ? | nt |

High-throughput results deposited in PubChem by National Center for Advancing Translational Sciences (NCATS).
